# Source: PubChem
# Yeast UUG start: modulators of yeast start codon fidelity, primary screen, whole organism, S. cerevisiae, single point, plate reader; S. cerevisiae UUG-firefly luciferase reporter, luminescence/redox ratio; activity score, % at 18.7 µM; 350,000 tested, 0.13% active;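 active = replicate mean at a twofold rise or more, about +100% in these data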;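 also: firefly luciferase made from a UUG start codon reports start codon fidelity; reporter light over untreated wells divided by growth signal over untreated wells; some hits fall short of that in this replicate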
# MT1-MMP act inh: blockers of MT1-MMP proenzyme processing, primary screen, HT1080 RFP-PRO-GFP cells, GFP/RFP fluorescence | 360,000 tested, 0.061% active | AID 651647, 2012 | GFP/RFP ratio change, % at 20 µM | GFP/RFP ratio fluorescence, overnight; percent of plate control window, DMSO zero | Matrix metalloproteinase-14 (Homo sapiens), P50281;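 active = GFP/RFP ratio change of at least 30% with cell ATP level not reduced by more than half and red fluorescence within 50% of control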; also: strong numbers were not always called active
#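 Assay system: HT1080 RFP-PRO-GFP cells. Benchmarks: DMSO vehicle wells and RFP-L50D-GFP reporter cell wells. Times: overnight cell settling, then overnight compound exposure, 37 °C, 5% CO2. Compound: 20 µM single dose, 1% DMSO. Read-out basis: GFP/RFP fluorescence ratio.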
# HIV Env fusion: inhibitors of HIV-1 Env-driven cell-cell fusion, primary screen, HeLa-JRFL effector, CEM21 target cells, luciferase; inhibition, % at 12.3 µM; 360,000 tested, 1.1% active; AID 651610, 2012;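 active = mean replicate inhibition score of at least 50 and every replicate individually at or above 50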;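 also: 0% = plate neutral controls and 100% = maraviroc near 300 nM; one replicate is shown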
# eIF4H inh: human eIF4H binding inhibitors, primary screen, translation initiation inhibitor project, biochemical, uHTS, fluorescence polarization; Eukaryotic translation initiation factor 4H (Homo sapiens), Q15056; eIF4H fluorescence polarization binding assay; inhibition, % at 35 µM; 290,000 tested, 0.94% active; AID 2012, 2009;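 active = 50% or more with normal probe brightness, or confirmed in later tests; about a fifth of its hits are not listed in these tables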;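 also: calls also rest on retests at 20 µM and on dose response follow-up; 0% = protein and probe with vehicle and 100% = probe without protein; strong numbers were not always called active; many hits fall short of the cut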
# Rce1 inh: yeast Rce1p protease inhibitors, primary screen, biochemical, fluorescence, cell-free homogeneous. CAAX prenyl protease 2 (Saccharomyces cerevisiae (strain ATCC 204508 / S288c)), Q03530. yeast membranes, quenched prenylated peptide cleavage fluorescence. calls only. 290,000 tested, 0.27% active;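 active = fall in fluorescence gain of 50% or more versus controls, with final raw signal at or below 3038400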;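 also: plate controls were neutral control wells for no effect and wells lacking membranes for full effect; tested at 10 µM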
# PABP polyA inh: PABP poly(A) RNA binding inhibitors, primary screen, biochemical, fluorescence polarization, uHTS. Polyadenylate-binding protein 1 (Homo sapiens), P11940. inhibition, % at 35 µM. 290,000 tested, 1% active. AID 2014, 2009;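 active = 50% or more with normal probe brightness, or confirmed in later tests; about a fifth of its hits are not listed in these tables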;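 also: calls also rest on retests at 20 µM and on dose response follow-up; controls were probe without protein and protein plus probe with vehicle; some compounds called inactive have numbers as strong as hits; many hits fall short of the cut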
# Target sequence (P11940 whole entry, looked up): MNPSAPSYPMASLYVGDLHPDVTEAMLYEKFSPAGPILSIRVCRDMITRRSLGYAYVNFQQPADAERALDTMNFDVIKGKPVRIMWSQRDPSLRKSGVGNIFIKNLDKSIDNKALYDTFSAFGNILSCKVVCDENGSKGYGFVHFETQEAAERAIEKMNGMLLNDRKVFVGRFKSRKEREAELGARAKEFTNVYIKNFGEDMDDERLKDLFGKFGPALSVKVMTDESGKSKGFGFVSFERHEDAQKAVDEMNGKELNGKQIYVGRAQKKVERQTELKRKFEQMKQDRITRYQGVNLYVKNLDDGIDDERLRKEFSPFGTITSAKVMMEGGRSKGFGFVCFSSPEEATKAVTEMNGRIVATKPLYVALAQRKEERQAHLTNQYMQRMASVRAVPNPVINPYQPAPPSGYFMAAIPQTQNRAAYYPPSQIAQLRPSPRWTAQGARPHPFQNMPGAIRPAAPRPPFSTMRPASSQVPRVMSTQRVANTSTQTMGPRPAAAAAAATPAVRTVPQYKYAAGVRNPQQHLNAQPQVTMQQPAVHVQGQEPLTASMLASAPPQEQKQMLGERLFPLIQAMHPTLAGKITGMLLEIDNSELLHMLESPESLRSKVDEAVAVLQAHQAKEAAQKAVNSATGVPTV
# CSC inhib: cancer stem cell viability inhibitors, primary screen, luminescence; cancer stem cell-like cells viability; inhibition, % at 7.5 µM; 300,000 tested, 1.1% active;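 active = mean at 75% or more and at least half the replicates too; tested in HMLE shEcad cells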;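 also: 0% = median of negative and 100% = median of positive control wells; the first replicate is given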
# MT1-MMP act inh RFP: also measured in MT1-MMP act inh; calls as there; RFP signal change, %; measured here: RFP expression control read;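 0 = vehicle wells; hits needed this value within 50% of zero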
# Numbers without * were called inactive; i = inactive; nt = no result given; & = joins results of further samples.
SMILES,Yeast UUG start,MT1-MMP act inh,MT1-MMP act inh RFP,HIV Env fusion,eIF4H inh,Rce1 inh,PABP polyA inh,CSC inhib
CC(NC(=O)COC(=O)c1ccccc1F)C1CC2CCC1C2 (configuration not stated),-11,7,7,nt,nt,nt,nt,-1
CCCCc1nnc2c(N(C)S(=O)(=O)c3ccc(C)cc3)nc3ccccc3n12,-6,0,-2,10,-2,i,-7,4
O=C(Cn1cnc2sc(-c3ccccc3)cc2c1=O)NCc1ccccc1,-7,2,-11,-119,2,i,-16,nt
CCOC(=O)C1CCN(C(=O)c2ccc(S(=O)(=O)Nc3ccccc3Cl)cc2)CC1,4,9,-8,-53,nt,nt,nt,nt
COc1ccc(CN2CC(C(=O)NCc3ccc4c(c3)OCO4)CC2=O)cc1 (configuration not stated),-8,4,-1,1,-6,i,3,1
OCCOCCN1CCN(C(=S)Nc2ccccc2)CC1,-27,2,-3,9,-17,i,-8,4
Cn1c(=O)c(=O)n(C)c2cc(S(=O)(=O)NCCOc3ccccc3)ccc21,nt,2,0,-1,-10,i,-9,2
CCc1cc(=O)oc2c(C)c(OCC(=O)NCC3CCC(C(=O)O)CC3)ccc12 (configuration not stated),-14,2,-1,nt,9,i,3,-18
O=C(CSc1nc2[nH]c(=O)cc(O)c2s1)Nc1cc(Cl)cc(Cl)c1,2,-3,-1,-4,-2,i,3,7
COc1ccccc1C1CC(=O)Oc2cc(O)ccc21 (configuration not stated),6,3,7,-3,nt,nt,nt,nt
COc1ccc(C(=O)N2CCN(C(=O)c3cc(OC)c(OC)c(OC)c3)CC2)cc1,-12,3,4,nt,-5,i,17,-5
COc1ccc(OCC(=O)N2CCc3ccccc3C2)cc1,-24,2,2,2,-4,i,4,-8
COc1ccc(N2C(=O)CCC2(C#N)c2ccc(Br)cc2)cc1 (configuration not stated),9,1,2,-6,-3,i,-8,-14
Cc1ccc2[nH]c3c(Cl)ncnc3c2c1,-24,-1,-3,-36,4,i,7,-6
Cc1ccc(NC2(C(N)=O)CCCC2)cc1,-23,0,0,3,nt,nt,nt,nt
O=C(Cc1ccccc1)NCCSCc1ccccc1,nt,3,7,-16,-6,i,8,-4
O=C(Nn1cc(C(=O)Nc2ccccc2F)c2ccccc2c1=O)c1cnccn1,4,0,1,9,3,i,6,10
O=C(CSc1nnc(-c2ccncc2)n1Cc1ccco1)Nc1cccc(O)c1,-15,1,-7,-4,-11,i,2,-6
COc1ccc(/C=C/C(=O)N(C)C2(C)CCS(=O)(=O)C2)cc1 (configuration not stated),-12,-1,-2,-2,nt,i,nt,-9
Cc1ccc(Cn2nc(C)c(/C=N/NC(=O)c3cccnc3)c2C)cc1,nt,5,5,18,-4,i,0,-15
CC(C)OC(=O)CSc1nc2c(cc1C#N)CCCCC2,-18,0,-1,-6,6,i,-3,-2
CC(C)c1ccc2c(c1)C1Cc3ccccc3C1N2 (configuration not stated),nt,-50,-10,-53,25,i,2,-4
Cc1ccc2c(CN3CCN(S(=O)(=O)c4ccccc4C(F)(F)F)CC3)cc(=O)oc2c1C,-3,0,-19,nt,nt,nt,nt,13
O=C(Nc1ccc(O)cc1)c1ccccc1OCc1ccccc1,-7,-2,-10,11,-6,i,-2,nt

# 13 compounds from above, arranged by length of the SMILES, smallest number first.
SMILES,Yeast UUG start,MT1-MMP act inh,MT1-MMP act inh RFP,HIV Env fusion,eIF4H inh,Rce1 inh,PABP polyA inh,CSC inhib
Cc1ccc2[nH]c3c(Cl)ncnc3c2c1,-24,-1,-3,-36,4,i,7,-6
COc1ccccc1C1CC(=O)Oc2cc(O)ccc21 (configuration not stated),6,3,7,-3,nt,nt,nt,nt
COc1ccc(OCC(=O)N2CCc3ccccc3C2)cc1,-24,2,2,2,-4,i,4,-8
O=C(Nc1ccc(O)cc1)c1ccccc1OCc1ccccc1,-7,-2,-10,11,-6,i,-2,nt
CC(NC(=O)COC(=O)c1ccccc1F)C1CC2CCC1C2 (configuration not stated),-11,7,7,nt,nt,nt,nt,-1
COc1ccc(N2C(=O)CCC2(C#N)c2ccc(Br)cc2)cc1 (configuration not stated),9,1,2,-6,-3,i,-8,-14
O=C(Cn1cnc2sc(-c3ccccc3)cc2c1=O)NCc1ccccc1,-7,2,-11,-119,2,i,-16,nt
COc1ccc(/C=C/C(=O)N(C)C2(C)CCS(=O)(=O)C2)cc1 (configuration not stated),-12,-1,-2,-2,nt,i,nt,-9
O=C(Nn1cc(C(=O)Nc2ccccc2F)c2ccccc2c1=O)c1cnccn1,4,0,1,9,3,i,6,10
CCCCc1nnc2c(N(C)S(=O)(=O)c3ccc(C)cc3)nc3ccccc3n12,-6,0,-2,10,-2,i,-7,4
CCc1cc(=O)oc2c(C)c(OCC(=O)NCC3CCC(C(=O)O)CC3)ccc12 (configuration not stated),-14,2,-1,nt,9,i,3,-18
CCOC(=O)C1CCN(C(=O)c2ccc(S(=O)(=O)Nc3ccccc3Cl)cc2)CC1,4,9,-8,-53,nt,nt,nt,nt
Cc1ccc2c(CN3CCN(S(=O)(=O)c4ccccc4C(F)(F)F)CC3)cc(=O)oc2c1C,-3,0,-19,nt,nt,nt,nt,13

# Continued.
SMILES,Yeast UUG start,MT1-MMP act inh,MT1-MMP act inh RFP,HIV Env fusion,eIF4H inh,Rce1 inh,PABP polyA inh,CSC inhib
COc1ccc(S(=O)(=O)N(C)C[C@@H]2OCc3cn(nn3)CCCC(=O)N([C@@H](C)CO)C[C@H]2C)cc1,-13&-5,6,7,9,nt,nt,nt,nt
O=C(N/N=C/c1ccc2cccc(OCc3ccccc3)c2n1)c1ccc(Br)cc1,-13,-1,-7,-69,-2,i,-8,11
O=C(Oc1cccc2cccnc12)c1ccc2c(c1)OCCO2,-13,0,-7,-1,2,i,-1,-4
CC1CCN(C(=O)COC(=O)CCCN2C(=O)c3cccc4cccc(c34)C2=O)CC1,16,-1,0,-5,0,i,-1,nt
CC(C)c1c(O)ccc2c1CC[C@H]1C(C)(C)CCC[C@]21C,-9,5,-1,12,nt,nt,nt,nt
O=C1CC(c2cccc(Cl)c2)Cc2nc(N3CCOCC3)ncc21 (configuration not stated),-5,4,-1,nt,0,i,19,2
NNC(=O)c1cc2c(ccc3ccccc32)o1,nt,-13,5,-41,6,i,7,-13
O=C(CN1CCN(Cc2ccc(F)cc2)C1=O)NCc1cccs1,-9,1,1,2,-6,i,10,-4
O=CNc1cc(-c2ccc(C(=O)NC3CC3)cc2)cn2c(-c3ccc(F)c(Cl)c3)cnc12,-20,-8,0,-27,nt,nt,nt,nt
C=CCn1cc(C(=O)NCCCOC)c(=O)c2cc(S(=O)(=O)N3CCC(C)CC3)ccc21,12,5,3,14,nt,nt,nt,-4
N#C/C(=C\c1cccc(Br)c1)C(=O)N1CCCCC1,-18,-8,-6,11,-2,i,0,1
COc1cc(C2C3=C(CCCC3=O)Nc3[nH]n(-c4ccccc4)c(=O)c32)ccc1OC(C)=O (configuration not stated),6,4,-1,-8,-5,i,-3,-19
CCCn1c(SCCN2CCOCC2)nc2c1c(=O)n(C)c(=O)n2C,-12,0,-3,13,-2,i,2,-6
COCCn1cnc2c1c(=O)n(CC(=O)c1ccc3c(c1)OCCO3)c(=O)n2Cc1ccccc1,nt,-4,5,18,-6,i,1,-2
COc1ccc(C)cc1NC(=O)CN(c1ccccc1F)S(C)(=O)=O,0,-1,-7,-8,-6,i,2,-9
COC(=O)c1ccc(N2C(=O)CC(N(C)Cc3ccccc3)C2=O)cc1 (configuration not stated),-11,0,0,nt,1,i,0,-16
COC(=O)[C@]1(Cc2ccccc2)N[C@H](CN(C)C(=O)Nc2ccc(C)cc2)[C@@H]2C(=O)N(C)C(=O)[C@@H]21,-25,2,3,-58,nt,nt,nt,nt
O=C(COc1ccc(S(=O)(=O)Nc2ccccc2)cc1)NCc1ccncc1,nt,-8,0,15,-3,i,-4,15
Cc1ccc(S(=O)(=O)Cn2nnnc2C(C(C)C)N2CCC(C(N)=O)CC2)cc1 (configuration not stated),5,3,4,1,-15,i,1,-20
COc1ccc(C2=CSC3=NCCN23)cc1F,nt,-1,0,nt,0,i,-11,-2
Cn1c(=O)c2c(SCC(=O)N3CCOCC3)nc(C3CCCCC3)nc2n(C)c1=O,nt,nt,nt,nt,2,i,-20,-10
CCNC(=S)N1CCn2c(nc3ccccc32)C1,nt,-11,-1,-43,3,i,20,15
COC(=O)c1cc(C(=O)OC)n(Cc2ccc(Br)cc2)n1,nt,0,1,-14,-7,i,7,-7
CN(Cc1cn(C)nc1-c1ccccc1F)CC1CCN(Cc2ccccc2)CC1,-24,2,3,-4,-4,i,1,3

# Copied from the listing (two entries):
SMILES,Yeast UUG start,MT1-MMP act inh,MT1-MMP act inh RFP,HIV Env fusion,eIF4H inh,Rce1 inh,PABP polyA inh,CSC inhib
CCCn1c(SCCN2CCOCC2)nc2c1c(=O)n(C)c(=O)n2C,-12,0,-3,13,-2,i,2,-6
COCCn1cnc2c1c(=O)n(CC(=O)c1ccc3c(c1)OCCO3)c(=O)n2Cc1ccccc1,nt,-4,5,18,-6,i,1,-2

# (cont.)
SMILES,Yeast UUG start,MT1-MMP act inh,MT1-MMP act inh RFP,HIV Env fusion,eIF4H inh,Rce1 inh,PABP polyA inh,CSC inhib
CCCCn1c(N)c(N(CCOC)C(=O)COC(=O)C(C)Oc2ccc(Cl)cc2)c(=O)[nH]c1=O (configuration not stated),-1,-4,-2,-3,nt,i,nt,-14
CC1(C)CC(=O)C/C(=N/NC(=O)c2ccc(-c3ccccc3)cc2)C1,nt,-1,-6,24,3,i,-4,12
CC[C@@]1(c2ccccc2OC)ON(c2ccccc2C(F)(F)F)C1=O,-5,1,3,4,nt,nt,nt,57
O=C(CN1C(=O)NC2(CCCC2)C1=O)Nc1ccc(F)c(Cl)c1,-19,1,3,-4,3,i,14,-17
O=S(=O)(NCc1csc(-c2cccnc2)n1)c1ccc(Br)cc1,9,2,1,6,-8,i,3,-8
O=S(=O)(/N=C(/Nc1cc(N2CCOCC2)ncn1)c1ccc(F)cc1)c1ccccc1,-21,0&-6,3&-1,nt,-2,i,-6,-10
Cc1ccc(N(C)S(=O)(=O)c2cc3c(cc2C)NC(=O)CO3)cc1,-7,4,-6,12,-3,i,3,-4
COc1cc(CNCCc2ccc(S(N)(=O)=O)cc2)ccc1OCC(=O)NC(C)(C)C,-10,1,5,30,-3,i,3,-1
Cc1ccc(-c2nnc(NC(=O)c3ccco3)s2)cc1,-10,1,0,-52,-7,i,5,nt
COc1cc(C2C(C(=O)c3ccco3)=C(O)C(=O)N2c2cc(C)on2)cc(Br)c1O (configuration not stated),-27,-25,2,-91,-2,i,10,1
C(=C\c1nc(-c2ccncc2)no1)/c1ccccc1,-40,0,-9,-63,-4,i,1,-3
CCOC(=O)C(CCCP(=O)(c1ccccc1)c1ccccc1)(NC(C)=O)C(=O)OCC,-9,0,4,-10,-9,i,-10,-8
O=C(CC1SC(=Nc2ccccc2)N(CCCO)C1=O)Nc1ccc(Cl)cc1 (configuration not stated),-10,4,-2,nt,4,i,-15,13
CCOC(=O)c1c(NC(=O)c2nn(CC)cc2Br)c(C#N)nn1-c1ccccc1,-10,-3,-9,-48,13,i,-8,1
